BmaI1: BmaI1 acyl-homoserine lactone synthase inhibition – biochemical, fluorescence intensity, with counterscreen (AID 720554); inhibition, %; BmaI1 enzyme assay, fluorescence intensity; hits give high values; test concentration not given here; a few actives read low; strong numbers were not always called active; hit rate 0.4% among 12,000;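 active means both replicates within 2 robust z-scores of the inhibited control and a quiet counterscreen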;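 further: 0% = uninhibited enzyme and 100% = inhibited control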
BmaI1 counterscreen: second read-out of BmaI1, no call of its own (marks repeat the call); inhibition, %; measured here: counterscreen; design of the counterscreen not given here;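 first of two replicates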
Active calls of the source: *. This is a subset. The share of hits here may be higher or lower than overall.

SMILES,BmaI1,BmaI1 counterscreen
O=C(CCCN1CC=C(n2c(=O)[nH]c3ccccc32)CC1)c1ccc(F)cc1,8,6
O=C(COC(=O)c1ccc(O)cc1)Nc1ccc(N2CCCCC2)cc1,22,-22
Cc1ccc(C)n1-c1ccc(C(=O)NC2CCC(O)CC2)cc1 (configuration not stated),1,2
CSC(NCc1ccc(Cl)cc1Cl)=C(C#N)C#N,15,8
O=C(CSc1ccccc1C(=O)N1CCc2ccccc21)NCc1ccco1,12,12
Cc1nn(-c2ccc(F)cc2)c(C)c1/C=C/C(=O)OCC(=O)Nc1sccc1C#N,9,1
CC(=O)S[C@@H]1CC2=CC(=O)CC[C@]2(C)[C@H]2CC[C@@]3(C)[C@@H](CC[C@@]34CCC(=O)O4)[C@H]12,10,7
COc1cc(C#N)ccc1OC(=O)CC1CC2CCC1C2 (configuration not stated),5,2
O=C(N=Nc1c(O)[nH]c2ccccc12)c1cccc(S(=O)(=O)N2CCCCC2)c1,6,-4
C=CCn1c(=O)c2ccccc2n2c(SCC(=O)NC3CCS(=O)(=O)C3)nnc12 (configuration not stated),11,5
O=C(O)C1CCN(S(=O)(=O)c2ccc3ccccc3c2)CC1,12,12
CCOC(=O)C1=C(C)NC(C)=C(C(=O)OCC)C1C(=O)OCc1cc(=O)n2cc(C)ccc2n1,-2,-4
CCCNC(=O)NS(=O)(=O)c1ccc(Cl)cc1,-10,-2
CCN(C(=S)NC(=O)c1ccco1)c1cccc2ccccc12,66,10
O=C(c1ccc(S(=O)(=O)NCc2ccco2)cc1)N1CCc2ccccc21,13,4
CCOc1cc(C(=O)OCc2nnc(-c3ccccc3)o2)ccc1OCC(=O)N1CCCCC1,6,2

An excerpt of these results, with values under each structure.
Results follow in this order: BmaI1, BmaI1 counterscreen
O=C(O)C1CCN(S(=O)(=O)c2ccc3ccccc3c2)CC1
  12, 12
CCOC(=O)C1=C(C)NC(C)=C(C(=O)OCC)C1C(=O)OCc1cc(=O)n2cc(C)ccc2n1
  -2, -4
CCCNC(=O)NS(=O)(=O)c1ccc(Cl)cc1
  -10, -2
CCN(C(=S)NC(=O)c1ccco1)c1cccc2ccccc12
  66, 10
O=C(c1ccc(S(=O)(=O)NCc2ccco2)cc1)N1CCc2ccccc21
  13, 4

Next part.
SMILES,BmaI1,BmaI1 counterscreen
NC(=O)c1ncn(C2OC(CO)C(O)C2O)n1 (configuration not stated),9,16
O=C(Nc1ccc2c(c1)OCCO2)Oc1ccccc1,44,30
NCCc1ccccc1F,14,12
O=C1CC(C(=O)N2CCN(c3ccccc3)CC2)CN1Cc1ccco1 (configuration not stated),6,7
Cn1cnnc1Sc1ccc(Cl)cc1NS(=O)(=O)c1ccc2c(c1)OCCO2,23,2
CCC(C)NC(=O)CSc1nnc(-c2ccc(C)c(C)c2)o1 (configuration not stated),11,6
Nc1ccccc1S(=O)(=O)NC1=NCCCCC1,2,0
O=c1c2c(-c3cccs3)csc2nc(CN2CCOCC2)n1Cc1ncc(-c2ccccc2)o1,19,8
c1ccc(-n2nnnc2Sc2nnc3n2CCCCC3)cc1,42,10
CN(C(=O)CSc1n[nH]c(N)n1)c1ccccc1,14,6
CCN(C(C)=O)c1nc(COC(=O)c2ccc3c(c2)OCCO3)cs1,5,-1
Cc1cccc(C(=O)OCCN2C(=O)c3ccccc3C2=O)c1,22,4
CNC(=O)CSc1nnc(-c2ccc3c(c2)OCO3)n1-c1ccccc1,12,4
Cc1cccc(NC(=O)CN2CCC(C)CC2)c1C,-18,-4
CC(C)(C)OC(=O)CSc1nnc(Cc2cccc3ccccc23)n1N,-2,-8
COCCCN1C(=O)CSC1c1cn(-c2ccccc2)nc1-c1cccs1 (configuration not stated),12,7
O=C(COC(=O)c1cccc(O)c1)c1ccc(F)cc1,14,10
CN(C)S(=O)(=O)c1cccc(CSc2nnc(COc3ccccc3F)n2N)c1,8,0
CCN(c1ccccc1)S(=O)(=O)c1ccc(Oc2ccc3c4c2CCCN4CCC3)nc1,-12,-12
Cc1cc(C)n2nc(SCc3nc(N)nc(Nc4ccccc4C)n3)nc2n1,15,1
CN(CC(=O)Nc1ccc(F)cc1)C(=O)CSc1ccc2c(c1)OCCO2,39,4
CC(C(=O)Nc1cccc(Cl)c1)N1CCNC(=O)C1 (configuration not stated),10,4
COc1ccc(CNC(=O)c2c(-n3cccc3)sc(C)c2C)cc1,-4,-4
Cc1ccc(C(=O)Nc2ccccc2C#N)cc1,14,10

Some of these compounds in order of SMILES length, low to high.
SMILES,BmaI1,BmaI1 counterscreen
Cc1ccc(C(=O)Nc2ccccc2C#N)cc1,14,10
O=C(COC(=O)c1cccc(O)c1)c1ccc(F)cc1,14,10
COc1ccc(CNC(=O)c2c(-n3cccc3)sc(C)c2C)cc1,-4,-4
CCN(c1ccccc1)S(=O)(=O)c1ccc(Oc2ccc3c4c2CCCN4CCC3)nc1,-12,-12

(continued)
SMILES,BmaI1,BmaI1 counterscreen
Cc1cc(C)nc(C(=O)N/N=C/c2cc(C)n(C3CCCC3)c2C)n1,9,10
Cc1ccc(N2C(=O)/C(=C/c3ccc4c(c3)OCO4)N=C2SCC(=O)Nc2cc(C)on2)cc1,9,2
CCO/C=C1\N=C(c2ccccc2)OC1=O,18,12
Cc1cc(C(=O)COC(=O)c2ccc3c(c2)C(=O)N(CCC(C)C)C3=O)c(C)n1Cc1cccs1,6,-2
Cn1c(=O)c2[nH]cnc2n(C)c1=O,9,14
COc1cc(C(=O)OCc2cc3ccccc3nc2Cl)cc2c1OCCO2,7,4
COc1ccc(NC(=O)CN(C)CC(=O)Nc2ccc(N3CCOCC3)cc2)cc1,0,-8
CN(C(=O)COc1ncnc2sccc12)C1CCCCC1,8,7
O=C1CCN(C(=O)CCCn2c(=O)oc3ccccc32)CC1,-11,-6
CNC(=S)N/N=C(\C)c1ccc2c(c1)OCCO2,22,7
COc1cc(OC)cc(C(=O)N(c2ccccn2)c2ccccn2)c1,16,8
O=C(COC(=O)c1cccnc1Cl)c1ccccc1,16,16
O=C1CN(C(=O)Cn2cc(C(F)(F)F)ccc2=O)c2ccccc2N1,0,2
COc1cccc(N2CCN(CC(=O)NCC(F)(F)F)CC2)c1,2,-4
Cc1ccc2nc(Cn3c(=O)c(N4CCOCC4)nc4ccccc43)cc(=O)n2c1,15,8
Cc1ccc(NC(=O)CN2C(=O)c3ccccc3S/C2=C\C#N)cc1C,13,5
COc1ccc(-n2cnnc2SCC(=O)N(Cc2ccccc2)C(C)C)cc1,16,1
O=C(COc1ccccc1F)OCc1cccc(C(F)(F)F)c1,4,7
COc1cc(C(C)n2ccnc2)cc(Br)c1O (configuration not stated),32,-4
CCn1c(=O)c(=O)[nH]c2cc(C(=O)N3CCN(c4ccccc4F)CC3)ccc21,6,5
COc1ccc2oc(C(=O)N(C)Cc3ccc(Br)s3)c(C)c2c1,12,6
COC(=O)N/N=C(/c1ccccc1)C1CCCCC1,16,4
CC(N=C1NS(=O)(=O)c2ccccc21)C(=O)NCCc1ccc2c(c1)OCCO2 (configuration not stated),12,0
O=C(CCOc1ccccc1)Nc1ccccc1N1CCCC1,-24,-36
CC(Nc1ccccc1CO)C(=O)Nc1cccc(Cl)c1 (configuration not stated),10,11
O=C(c1ccc(F)cc1)N1CCCCC(N2CCN(S(=O)(=O)c3ccccc3)CC2)C1=O (configuration not stated),12,10
Cc1ccc2c(CC(=O)N3CCN(c4ncccn4)CC3)coc2c1,15,18
Cc1nc(COc2cccc(C(=O)O)c2)cs1,-10,-11
O=C(Nc1ccc2c(c1)OCO2)C1=NN(C2CCS(=O)(=O)C2)C(=O)CC1 (configuration not stated),11,14
c1ccc(NNC2=NCCCCC2)nc1,85*,4.5*
CC(C)(C)c1ccc(C(=O)NCCC(=O)N2CCN(c3ncccn3)CC2)cc1,27,10
COCCCN1C(=O)c2ccc(C(=O)OCC(=O)Nc3ccc(N(C)C)cc3)cc2C1=O,68,38
CCOc1cc(N2CCOCC2)c(OCC)cc1NC(=O)Cn1nnc(-c2ccccc2C)n1,6,1
COc1ccc(NC(=O)COC(=O)CC2Sc3ccccc3NC2=O)cc1 (configuration not stated),9,-2
O=C(Cn1nnc(-c2cccc(Cl)c2)n1)N1N=C(c2cccs2)CC1c1cccs1 (configuration not stated),10,2
O=C(c1cnc2c(c1)c(=O)nc1ccccn12)c1ccccc1O,12,6
Cc1ccc(C)c(S(=O)(=O)Nc2ccccc2C(=O)OCC(=O)c2cc(C)n(Cc3ccco3)c2C)c1,8,4
Cc1noc(C)c1C(=O)OC(C)C(=O)c1ccc(C(C)(C)C)cc1 (configuration not stated),6,-4
CC1c2cccc(O)c2C(O)=C2C(=O)[C@]3(O)C(O)=C(C(N)=O)C(=O)[C@@H](N(C)C)[C@@H]3C[C@@H]21 (some centres not stated),2,11
Cc1cc(N2CCN(C)CC2)nc(SC(C(=O)O)c2ccccc2)n1 (configuration not stated),16,6
CCN(CC)c1ccc(-n2cccc2)cc1,17,-5
CSc1cccc(-n2c(C)cc(C(N)=O)c2C)c1,12,7
Cc1cc(CNC(=O)CSc2nnc3ccccn23)cc(C)c1O,40,12
CC(OC(=O)c1cccs1)C(=O)N1CCc2ccccc21 (configuration not stated),-4,-6
Cc1nn(-c2ccccc2)c(C)c1C(=O)NCC(c1cccs1)N(C)C (configuration not stated),16,6
N#CCCn1c(SCC(=O)c2ccc(Cl)s2)nc2ccccc21,12,14
NC(N)=NS(=O)(=O)c1ccccc1,21,-8
CS(=O)(=O)NCCc1ccc(C(=O)O)s1,6,-2
CCS(=O)(=O)c1ccc(O)c(N=Cc2c(O)[nH]c(=S)[nH]c2=O)c1,62,17
CN(CC1COc2ccccc2O1)C(=O)c1ccc(Cl)cc1Cl (configuration not stated),2,2
Cc1nc(OCC2CN(Cc3ccccc3)CCO2)c2ccccc2n1 (configuration not stated),-4,2
N#Cc1cc(C#N)c(SCc2cc3c(cc2Br)OCCO3)nc1N,16,2
CC1CC(=O)Nc2ccccc2N1C(=O)CSc1ccc2c(c1)OCCCO2 (configuration not stated),22,15
Cn1c(SCC(=O)c2ccc(O)cc2O)nnc1C(F)(F)F,8,8
CN(C)S(=O)(=O)c1ccc2nnn(OCc3ccccc3)c2c1,7,0
CC(=O)Nc1ccc(C#N)c(OC(F)F)c1,15,4

Carrying on.
SMILES,BmaI1,BmaI1 counterscreen
Cc1[nH]nc(Nc2ccccc2)c1N=Nc1ccc(Br)cc1,12,4
NS(=O)(=O)c1ccc(CCN2C(=O)CCC2=O)cc1,-7,-8
O=C(CCC(=O)c1cccs1)NCc1ccccc1,8,7
CCC(=O)O[C@]1(C(=O)CCl)[C@@H](C)C[C@H]2[C@@H]3CCC4=CC(=O)C=C[C@]4(C)[C@@]3(F)[C@@H](O)C[C@@]21C,-5,2
NS(=O)(=O)c1ccc(CNc2ccc3ccccc3n2)cc1,10,10
NC(=O)C1CCCN(C(=O)CCC(=O)c2cccs2)C1 (configuration not stated),7,9
Cc1ccc(CN(C)c2ccc(S(=O)(=O)N3CCCC3)cn2)cc1,10,-2
CC(=O)OC1C([N+]2(C)CCCCC2)C[C@H]2C3CC[C@H]4C[C@H](OC(C)=O)C([N+]5(C)CCCCC5)CC4(C)[C@H]3CCC12C (some centres not stated),2,8
CC1Cc2ccccc2N1C(=O)CSc1nnc(COc2ccccc2Cl)o1 (configuration not stated),17,9
CN(C)C1(CNC(=O)c2cccc(NS(=O)(=O)c3ccc4c(c3)OCCO4)c2)CCCCC1,-8,-6
CC(C)CN1C(=O)/C(=C\c2ccc(-c3ccc(S(N)(=O)=O)cc3)o2)SC1=S,-2,-6
Cc1ccc(CN2CC(C(=O)N3CCCc4ccccc43)CC2=O)cc1 (configuration not stated),18,10
O=C(O)c1cc(S(=O)(=O)NNc2ccc(Cl)cc2)ccc1O,77,81
Cc1ccc(C)c(S(=O)(=O)N2CCCN(C)CC2)c1,19,14
O=C(O)c1nn(CC(=O)N2CCCCCC2)c(=O)c2ccccc12,18,16
CCOC(=O)c1sc2nc(CSc3nc4ccccc4c(=O)n3CCOC)[nH]c(=O)c2c1C,0,-1
NCC(O)c1ccc(O)c(O)c1 (configuration not stated),58,36
CCOC(=O)c1ccc(OC(=O)CCCCCN=C(N)N)cc1,-9,-2
CC(C)NC(=O)CSc1ccc2c(c1)OCCO2,9,1
Cc1nc(SCC(=O)N(C)c2ccccc2)nc(C)c1C,18,20
O=C1CCC(C(=O)Nc2nnc(Cc3ccccc3)s2)=NN1,18,7
Cc1nn(Cc2ccccc2Cl)c2sc(C(=O)N3CCc4ccccc43)cc12,2,-6
C/C(=N\NC(=O)c1ccc(O)cc1)c1ccc(S(=O)(=O)NCc2ccco2)cc1,0,6

Screens: PubChem BioAssay, ICCB-Longwood Screening Facility, Harvard Medical School
